Screening results (PubChem BioAssay)
Bead autofluor – compound fluorescence in toxin protease inhibitor counterscreen | compound autofluorescence counterscreen, microsphere flow cytometry; stronger effect = higher value | fluorescence intensity (no concentration beside the values) | hit rate 3.1% among 360,000 | AID 624483;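 active = at least 3 SD above the mean of all compounds, about 16000 in these data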;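 note: 100 nL of 1 mM stock went into each well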
* marks the source's active call; other numbers are inactive results. The list is partial (hit frequency here may not be typical).

SMILES | Bead autofluor
O=C(O)CN1C(=O)C=CC1=O | 3668
COc1cc(NC(=O)[C@H]2O[C@@H](n3ccc(N)nc3=O)[C@H](O)[C@@H]2O)cc(OC)c1OC | 5852
COc1ccc(-n2ncc(C(C)NS(=O)(=O)c3cc(C)sc3C)c2C)cc1 (stereo unspecified) | 3535
CCc1c(C)c(C#N)c2nc3ccccc3n2c1NCCCN(C)C | 3955
O=C(OCC(=O)c1c[nH]c2ccccc12)c1ccc(F)c(S(=O)(=O)N2CCOCC2)c1 | 3649
CC(C)CC1C(=O)N(Cc2cn(CCC3OCCCO3)nn2)CCS(=O)(=O)N1Cc1ccc(-c2ccc(Cl)nc2)cc1 (stereo unspecified) | 2887
Cc1ccc(C(=O)N2CCCC2(C)C(=O)NCC(C)C)cc1F (stereo unspecified) | 2929
Cn1nc(C(C)(C)C)cc1C(=O)N1CCCC(c2cc(C(=O)Nc3ccccc3Cl)no2)C1 (stereo unspecified) | 3713
COc1ccc(-c2nn(-c3ccccc3)cc2CNC[C@H]2O[C@@H](n3ccc(=O)[nH]c3=O)[C@H](O)[C@@H]2O)cc1 | 6061
CCOc1ccc(/C=N/Nc2cc(N3CCOCC3)ncn2)c(O)c1 | 2818
CNc1cnc(-c2cc(OC)c(OC)c(OC)c2)cn1 | 3800
CCc1nc2ccc(C(=O)NCCNC(C)=O)cn2c1N(C)CCCc1ccccc1 | 4205
CCC(CC)C(=O)N(C)c1c(C)nc2c(OCC(=O)C(C)(C)C)cccn12 | 3569
CCOC(=O)C(=C1Nc2ccccc2N1)n1c(-c2ccco2)nc2ccccc21 | 5280
CCCNC(=O)C1(C)CCCN(C(=O)c2c(F)ccc(C)c2F)C1 (stereo unspecified) | 3935
O=C(CC[C@H]1O[C@@H](n2ccc(=O)[nH]c2=O)[C@H](O)[C@@H]1O)N[C@H](Cc1ccccc1)C(=O)NCc1ccccc1 | 4672
COc1ccccc1N(C)S(=O)(=O)c1ccc(C(=O)N(C)Cc2cccc(OC)c2OC)cc1 | 3751
CCCCCCCCN1C(=O)[C@H](CC(=O)N2CCN(C(=O)C3CC3)CC2)C[C@@]2(C(=O)OCC)CCCC=C12 | 5786
O=C(O)c1ccccc1C(=O)Nc1ccc(Nc2ccccc2)cc1 | 3663
COc1ccccc1Cn1c(=O)oc2ccccc21 | 3775
N#Cc1nccc2ccc(OCc3ccc(Br)cc3)cc12 | 3734
CNc1cc(-c2cccc(N(C)C)c2)ncn1 | 3952
Cc1ccccc1CNC(=O)c1[nH]c(C(F)(F)F)nc1-c1ccccc1 | 6276
CCCCCCN1C[C@H](O)[C@@H](n2cc(C3CC3)nn2)C[C@@H]1c1ccc(C)cc1 | 4638
CC1(C(=O)NS(=O)(=O)c2cccc(C#N)c2)CCN1C(=O)C1(c2ccc(Cl)cc2)CC1 (stereo unspecified) | 3947
COc1ccc(C(=O)N2CCC(C)(C(=O)NS(=O)(=O)C3CC3)C2)cc1 (stereo unspecified) | 4063
Cc1ccc([C@H]2C[C@H](O)[C@@H](n3cc(-c4ccc(F)cc4)nn3)CN2C(=O)C2CCCCC2)cc1 | 3772
O=C(NCCO)c1cccc(-c2cccc3nccn23)c1 | 3957
O=C(OCc1cn([C@@H]2C[C@H](c3ccccc3)N(Cc3cccs3)C[C@H]2O)nn1)c1ccccc1 | 3973
O=C(NCc1ccc(Cl)c(Cl)c1)c1cc(C2CCCCN2C(=O)c2cccs2)on1 (stereo unspecified) | 10010
Cc1ccccc1C1N=C2Oc3ccccc3C=C2C(=O)N1 (stereo unspecified) | 4294
CC(=O)OC1CCC2(C)C(CCC3C4CC=C(C(C)=O)C4(C)OC(=O)CC32)C1 (stereo unspecified) | 3906
CN(C)Cc1csc(NC(=O)Nc2cccc(Cl)c2)n1 | 3708
OCC1CSC(=S)N1Cc1ccccc1 (stereo unspecified) | 5941
O=c1c(-c2ccccc2)cocc1-c1ccccc1 | 2794
CCN(CC)C(=O)C1=C(C)N(Cc2ccc(F)cc2)C(=O)C(CC(=O)NCCCN(C)C)C1 (stereo unspecified) | 3326
OC(CSc1nnnn1-c1ccccc1)Cn1c2ccccc2c2ccccc21 (stereo unspecified) | 4461
C=CCCC(=O)N1C[C@H]2CON(C)[C@H]2C[C@H]1c1cccc(Oc2ccccc2)c1 | 3385
Cc1cc(Br)cn2c(Cc3cccc(F)c3)c(-c3ccc(C#N)cc3)nc12 | 8537
Cc1cc(C)c(NC(=O)COC(=O)C2=COCCO2)c(C)c1 | 3650
Cc1ccc([C@H]2C[C@@H](O)[C@H](n3cc(COC(=O)c4ccccc4)nn3)CN2C(=O)c2cccs2)cc1 | 3414
CC1(C(=O)NCCc2c[nH]c3ccccc23)CCN1Cc1csc2ccccc12 (stereo unspecified) | 3539
CC(C)(C)C(=O)N1Cc2cc(-c3cccc(F)c3)ccc2-n2nncc2C1 | 4235
COc1ccc(OCC(=O)Nc2ccc3c(c2)nc(CCN2CCN(c4ccccn4)CC2)n3C)cc1 | 4006
COCCNC(=O)C1(C)CCCN(Cc2cccc(OC(=O)c3ccccc3)c2)C1 (stereo unspecified) | 3858
COc1cc(NC(=O)C2(C)CCCN2C)cc(OC)c1OC (stereo unspecified) | 3011
O=C(NCc1ccncc1)c1csc([C@@H]2C[C@H](O)[C@@H](CO)O2)n1 | 3809
COCCNC(=O)C1(C)CCCN(Cc2cc(-c3ccccc3)n(C)n2)C1 (stereo unspecified) | 3918
COc1cccc(C(O)c2nc(-c3cccc(C#N)c3)cs2)c1 (stereo unspecified) | 3555
Nc1ncc(-c2ccc(F)cc2)nc1N1CCN(CCO)CC1 | 3734
CSc1ncnc2c1ncn2CCCNCCCc1ccccc1 | 2942
CN(Cc1ccccc1)C(=O)COC(=O)c1c[nH]c2ccccc12 | 3051
CC1(C(=O)NS(=O)(=O)c2ccc(Cl)s2)CCN1C(=O)CCc1ccccc1 (stereo unspecified) | 3671
CC(C)Oc1cccc(C(=O)Nc2nnc([C@@H]3C[C@H](O)[C@@H](CO)O3)s2)c1 | 3518
C[C@H]1CN([C@@H](C)CO)C(=O)c2cc(C3=CCCC3)cnc2O[C@@H]1CN(C)C(=O)c1ccncc1 | 4039
CC1OC2CC(=O)OC2C2=C1C(=O)c1c(O)cccc1C2=O (stereo unspecified) | 5201
NS(=O)(=O)c1ccc(CCNc2ccn3nc(-c4ccc(OCCN5CCOCC5)cc4)cc3n2)cc1 | 3801
Cc1cccc(C)c1-n1nnnc1SCc1nc(N)nc(N(C)C)n1 | 2959
CCCCn1nnnc1C(c1ccccc1OC(F)(F)F)N1CCN(C/C=C/c2ccccc2)CC1 (stereo unspecified) | 5978
COc1ccc(-n2nnnc2C(CCc2ccccc2)N2CCC(n3c(=O)[nH]c4ccccc43)CC2)cc1 (stereo unspecified) | 4545
More structures.
SMILES | Bead autofluor
C[C@@H](NC(=O)[C@@H]1CCCN1C(=O)[C@@H]1CCCN1C(=O)c1cccs1)c1ccccc1 | 5662
COc1cccc(C(NC(C)=O)c2nc(-c3cccc(NC(C)=O)c3)cs2)c1 (stereo unspecified) | 3833
CC1Sc2ccccc2N(Cc2ccccc2)C1=O (stereo unspecified) | 3922
CCS(=O)(=O)N1CCN(C(=O)c2ccc3nc(C)c(N(C)C(=O)CCc4ccccc4)n3c2)CC1 | 3681
COc1ccccc1-c1cc(NC=O)c2ncc(-c3cccc(C(F)(F)F)c3)n2c1 | 3140
C[C@@H]1CN([C@@H](C)CO)C(=O)CCCn2nncc2CO[C@H]1CN(C)C(=O)Nc1ccnc(N2CCOCC2)c1 | 3513
COc1ccc(OC)c(CN2C(=O)c3ccccc3C2c2nnnn2-c2c(C)cccc2C)c1 (stereo unspecified) | 5543
COc1c2ccccc2nn1C(C)C | 6441
COc1cccc(-n2cc(CN(C)C(=O)C3CCC(=O)N(C4CC4)C3)cn2)c1 (stereo unspecified) | 3014
O=C(Nc1cccc(C(F)(F)F)c1)c1csc([C@@H]2C[C@H](O)[C@@H](CO)O2)n1 | 3875
Cc1ccc(C(=O)Nc2nnc([C@H]3C[C@H](O)[C@@H](CO)O3)s2)cc1 | 3353
O=[N+]([O-])c1cc2c(cc1Br)-c1ccccc1C2 | 3645
Cc1ccccc1-c1csc(C(O)(c2ccccc2)C(F)(F)F)n1 (stereo unspecified) | 2915
CC1OC(C(C)(C)C)Cc2[nH][nH]c(=O)c21 (stereo unspecified) | 5744
CC(C)(C)n1nnnc1C(c1ccccc1)N1CCCN(Cc2ccc(F)cc2)CC1 (stereo unspecified) | 4685
CCOc1ccc(N=Cc2ccc(N(C)C)cc2)c(O)c1 | 3200
Cc1ccc(-c2cnc3c(c2)C(=O)N([C@H](C)CO)C[C@@H](C)[C@@H](CN(C)C(=O)Cc2ccccc2)O3)cc1 | 3617
O=C(Nc1c(-c2ccc3c(c2)OCO3)[nH][nH]c1=O)c1cccc(C(F)(F)F)c1 | 5722
CCOc1ccc(OCC(=O)N2CCN(S(=O)(=O)c3ccccc3)CC2)cc1 | 3829
COCCCN1C(=O)C(CC(=O)NCC2CCCCC2)CC(C(=O)N2CCOCC2)=C1C (stereo unspecified) | 3676
O=C1C2C3C=CC(CC3)C2S(=O)(=O)C2C3C=CC(CC3)C12 (stereo unspecified) | 3837
CC(=O)O[C@@H]1C[C@@]2(C)[C@@H](CC[C@H]2[C@@H](C)/C=C\CC(C)C)C2=C[C@@H](O)[C@@]3(O)C[C@@H](O)[C@H](O)C[C@]3(CO)[C@]21O | 5024
COc1ccccc1S(=O)(=O)N(C)C[C@@H]1Oc2cc(C#CCC(C)C)ccc2S(=O)(=O)N([C@H](C)CO)C[C@@H]1C | 3776
CCCS(=O)(=O)NC(=O)C1(C)CCCN(C(=O)c2ccco2)C1 (stereo unspecified) | 2732
CC1=C(C(=O)N(C(C)C)C(C)C)CC(CC(=O)NCCN2CCOCC2)C(=O)N1CCC1=CCCCC1 (stereo unspecified) | 5839
CC(=O)NCCNC(=O)C1Cc2c(-c3ccccc3)ccnc2O1 (stereo unspecified) | 3696
CC(=NNC(N)=S)c1ccc2cc3c(cc2c1)OCO3 | 3685
Fc1ccc(-c2nc3ccc(Br)cn3c2Cc2ccccc2C(F)(F)F)cc1 | 5366
CCCCOc1ccc(C(=O)NCCN2CCC(n3c(=O)[nH]c4ccccc43)CC2)cc1 | 6323
CCCCn1nnnc1C(c1ccc(OC)cc1)N1CCN(C/C=C/c2ccccc2)CC1 (stereo unspecified) | 6162
CC(=O)Oc1ccc(-c2csc(Nc3ccccn3)n2)cc1 | 4341
CN(CCO)c1ccc2c(c1)OC[C@H](Cc1ccccc1)NS2(=O)=O | 5824
CCCCCN(C(=O)CCC(=O)OCC(=O)NCCc1ccccc1)c1c(N)n(CCCC)c(=O)[nH]c1=O | 3780
CSc1ccc(CNC(=O)C2CCC(=O)N(CCc3ccc(Cl)cc3)C2)cc1 (stereo unspecified) | 4236
CCN(CC)C(=O)C1=C(C)N(CCCOC)C(=O)C(CC(=O)NCc2cccc3ccccc23)C1 (stereo unspecified) | 3074
CCCN(C)C1CN(Cc2cn(Cc3ccc(Cl)cc3)nn2)S(=O)(=O)C1 (stereo unspecified) | 5710
COc1ccc(NC(=O)C2Cc3c(-c4ccco4)ccnc3O2)cc1OC (stereo unspecified) | 3453
CC(C)(C)c1cc2nc(NCCOc3ccccc3)ccn2n1 | 3061
Cc1ccc2n1Cc1cnnn1-c1ccccc1-2 | 3391
Cc1ccc(Cl)cc1-c1cc(C(=O)NCc2ccc(C(F)(F)F)cc2)[nH]n1 | 3704

Look-ups from the entries so far:
COc1ccc(C(=O)N2CCC(C)(C(=O)NS(=O)(=O)C3CC3)C2)cc1 (stereo unspecified) – Bead autofluor = 4063
Fc1ccc(-c2nc3ccc(Br)cn3c2Cc2ccccc2C(F)(F)F)cc1 – Bead autofluor = 5366

The results go on.
SMILES | Bead autofluor
O=C(COC(=O)c1ccc(F)cc1Cl)NC1CC1 | 2909
O=C1NC[C@@H](CCCCN2CCN(CCC3CCCCC3)C(=O)C2=O)N(CCC2CCCCC2)C1=O | 5216
COc1ccccc1C(O)c1ncc(-c2ccc(Cl)cc2)[nH]1 (stereo unspecified) | 3194
C[C@@H](CO)NC(=O)c1[nH]cnc1C(=O)Nc1cccc(Cl)c1 | 3705
COC(=O)N(C)C[C@H]1OCc2cn(nn2)CCCC(=O)N([C@@H](C)CO)C[C@@H]1C | 5610
CCCNCC(=O)Nc1sc2c(c1C(=O)Nc1c(C)n(C)n(-c3ccccc3)c1=O)CCCC2 | 2817
COc1ccc(NC(=O)CN2C(=O)NC(C)(Cc3ccc(OC)c(OC)c3)C2=O)cc1 (stereo unspecified) | 3745
Cc1cn([C@H]2C[C@H](O)[C@@H](CCC(=O)NCC3CCCO3)O2)c(=O)[nH]c1=O (stereo partly specified) | 6019
CC(=O)N1C[C@H]2CON(C)[C@H]2C[C@H]1c1ccc(-c2cccnc2)cc1 | 3971
O=C(c1ccco1)N1CCN(C(=O)c2ccc(Br)o2)CC1 | 3679
CC(=O)Nc1cccc(-c2ccnc3c2CC(C)(C(=O)Nc2cccnc2)O3)c1 (stereo unspecified) | 3885

Among those listed so far, these contain a tert-butyl group:
SMILES | Bead autofluor
Cn1nc(C(C)(C)C)cc1C(=O)N1CCCC(c2cc(C(=O)Nc3ccccc3Cl)no2)C1 (stereo unspecified) | 3713
CCC(CC)C(=O)N(C)c1c(C)nc2c(OCC(=O)C(C)(C)C)cccn12 | 3569
CC(C)(C)C(=O)N1Cc2cc(-c3cccc(F)c3)ccc2-n2nncc2C1 | 4235
CC1OC(C(C)(C)C)Cc2[nH][nH]c(=O)c21 (stereo unspecified) | 5744
CC(C)(C)n1nnnc1C(c1ccccc1)N1CCCN(Cc2ccc(F)cc2)CC1 (stereo unspecified) | 4685
CC(C)(C)c1cc2nc(NCCOc3ccccc3)ccn2n1 | 3061

Reformatted: entries from further up.
molecule,Bead autofluor
O=C1NC[C@@H](CCCCN2CCN(CCC3CCCCC3)C(=O)C2=O)N(CCC2CCCCC2)C1=O,5216
COc1ccccc1C(O)c1ncc(-c2ccc(Cl)cc2)[nH]1 (stereo unspecified),3194
C[C@@H](CO)NC(=O)c1[nH]cnc1C(=O)Nc1cccc(Cl)c1,3705
COC(=O)N(C)C[C@H]1OCc2cn(nn2)CCCC(=O)N([C@@H](C)CO)C[C@@H]1C,5610
